Compound activity: PubChem, National Center for Advancing Translational Sciences (NCATS)
VDR inh = Inhibitors of the vitamin D receptor (VDR): qHTS. Potency, µM, for inactives: max response, negative = inhibition, actives largely listed as inhibitors. 400,000 tested, 0.93% active. VDR-SRC2-3 peptide fluorescence polarization, 2 h. Vitamin D3 receptor (Homo sapiens), P11473. AID 504847, 2011; active = well fitted inhibition curve with a large enough effect; inconclusive = small, poorly fitted or top-dose-only effect, or another doubt; inactive = no such curve, though single readings can be large or run the other way; note: series mostly up to about 120 µM
Target sequence (P11473 whole entry, looked up): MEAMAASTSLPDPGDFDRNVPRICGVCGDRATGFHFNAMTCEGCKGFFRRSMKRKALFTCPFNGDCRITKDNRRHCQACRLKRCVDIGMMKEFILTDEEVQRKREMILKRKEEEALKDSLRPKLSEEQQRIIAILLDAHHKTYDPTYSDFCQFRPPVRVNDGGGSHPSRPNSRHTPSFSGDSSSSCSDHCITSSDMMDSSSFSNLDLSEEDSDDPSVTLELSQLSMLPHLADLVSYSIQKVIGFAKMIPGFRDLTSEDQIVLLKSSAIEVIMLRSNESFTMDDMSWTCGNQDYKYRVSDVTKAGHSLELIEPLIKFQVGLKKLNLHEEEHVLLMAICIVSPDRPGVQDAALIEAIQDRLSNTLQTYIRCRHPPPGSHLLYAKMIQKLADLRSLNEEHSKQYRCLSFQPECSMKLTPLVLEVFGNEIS
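Measured by FP: displacement of SRC2-3 coactivator peptide from VDR by library compounds, following a two-hour ambient incubation.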
* = called active by the depositor; ? = inconclusive; & = joins results of further samples. % is set by controls: 0 for no effect and ±100 for the full control effect; potency is the fitted concentration of half-maximal effect. An excerpt. The share of hits here may be higher or lower than overall.

The first 2 records, to show the layout:
SMILES	VDR inh
O=C(Nc1c(C(=O)N2CCN(c3ccc(F)cc3)CC2)oc2ccccc12)c1ccco1	-2%
Clc1cccc(-c2ccc(/C=N/n3cnnc3)o2)c1Cl	20%

The list itself, repeating the preview:
SMILES	VDR inh
O=C(Nc1c(C(=O)N2CCN(c3ccc(F)cc3)CC2)oc2ccccc12)c1ccco1	-2%
Clc1cccc(-c2ccc(/C=N/n3cnnc3)o2)c1Cl	20%
COc1ccccc1CNC(=O)[C@H](C)NC(=O)[C@@H]1Cc2ccccc2CN1	15%
C#CCOCCOCCOCCNc1nc(N2CCN(C(=O)[C@H]([C@@H](C)CC)n3cc([C@@H](N)CC(C)C)nn3)CC2)nc(N2CCN(C(=O)[C@H](Cc3ccc(O)cc3)n3cc([C@@H](N)C(C)CC)nn3)CC2)n1 (some centres not stated)	-1%
Cc1ccnc(NC(=O)CCC(=O)N(CC(=O)NCc2ccccc2)Cc2ccc(F)cc2)c1	8%
CC1CCN(S(=O)(=O)c2ccc3c(c2)oc(=O)n3CC(=O)N2CCCCC2)CC1	2%
O=C(NCCc1ccccc1)C1CCCN(c2cnccn2)C1 (configuration not stated)	-13%
c1ccc2c(C[C@@H]3CNCCN3CC3CCCCC3)cccc2c1	-8%
COc1ccccc1-n1c(SCC(=O)Nc2ccccc2C)nc(O)cc1=O	8%
C=CCn1c(O)c2ccc(C(=O)N=NC(=O)COc3ccc(OC)cc3)cc2c1O	-9%
CC(C)(C)OC(=O)C[C@H]1C/C=C\C[C@H](CC(=O)N[C@H](CO)Cc2ccccc2)C(=O)N[C@H](C(C)(C)C)COC1=O	-27%
CCOCCCNC(=O)c1cc(Sc2nnc(C)s2)nc2ccccc12	9%
N#Cc1c(-c2ccccc2)nc(SCC(=O)Nc2ccc(OC(F)(F)Cl)cc2)[nH]c1=O	?
Oc1ccccc1C=NCc1ccccc1	9%
CC1(NC(=O)C2CCN(C(=O)Nc3ccccc3)CC2)CCS(=O)(=O)C1 (configuration not stated)	-2%
Cc1cc(C)nc(Sc2ccc([N+](=O)[O-])cc2[N+](=O)[O-])n1	-19%
Cc1ccc(N(CC(=O)N2CCN(Cc3ccccc3)CC2)S(C)(=O)=O)cc1C	-4%
CCOc1ccc(Nc2nc(Cc3nnc(SCC(=O)O)o3)cs2)cc1	-4%
CC(C)[C@H](NC(=O)c1cccc(CN(Cc2ccccc2)C(=O)c2ccccc2)c1)C(=O)O	-14%
O=C1CCN(Cc2ccc(Cl)cc2Cl)C(=O)N1	10%

In a second layout: results already given.
C#CCOCCOCCOCCNc1nc(N2CCN(C(=O)[C@H]([C@@H](C)CC)n3cc([C@@H](N)CC(C)C)nn3)CC2)nc(N2CCN(C(=O)[C@H](Cc3ccc(O)cc3)n3cc([C@@H](N)C(C)CC)nn3)CC2)n1 (some centres not stated)
  VDR inh: -1%
c1ccc2c(C[C@@H]3CNCCN3CC3CCCCC3)cccc2c1
  VDR inh: -8%
CCOCCCNC(=O)c1cc(Sc2nnc(C)s2)nc2ccccc12
  VDR inh: 9%

Next entries
SMILES	VDR inh
COc1ccc(Cc2nnc(SCC(=O)Nc3ccc(C)cc3C)[nH]c2=O)cc1	-1%
COc1ccc(N2CCN(c3oc(Cc4cccc5ccccc45)nc3C#N)CC2)cc1	-8%
Cc1ccc2nc(N3CCN(C(=O)c4ccco4)CC3)c3nncn3c2c1	10%
CS(=O)(=O)c1ccc(CNC(=O)[C@]2(C(F)(F)F)C[C@H](CCc3ccccc3)CCCO2)cc1	-14%&-9%
COc1ccc(N2CCN(C(=O)NCc3cccc(OC)c3)CC2)cc1	6%
COc1cccc(-n2nc(C(=O)N3CCN(Cc4ccccc4)CC3)c3ccccc3c2=O)c1	-31%
C[C@]12C[C@H](O)CC(CO)(CO)C1[C@H](O)C[C@@]13CC4[C@@H](CC12)[C@@]4(C)C3 (some centres not stated)	-5%
Cc1ccc(S(=O)(=O)NCC(=O)OCC(=O)N2CC(C)OC(C)C2)cc1 (configuration not stated)	6%
CCn1c2ccccc2c2cc(NC(=O)c3cccc(OC)c3OC)ccc21	-21%
CCc1nc2ccc(C(=O)N(C)CC(=O)Nc3ccc(Cl)c(C(F)(F)F)c3)cc2nc1CC	-11%
COc1ccc(C2C(=O)N(C3CCCCC3)CC(=O)N2CCc2ccc(C)cc2)cc1OC (configuration not stated)	14%
CC1(C)CC(=O)C(N=Nc2ccc(S(=O)(=O)N3CCOCC3)cc2)=C(O)C1	12%
O=C1c2ccccc2C(=O)N1Cc1nc2ccccc2o1	-8%
CC1CCN(CC(O)COc2ccc(C(=O)c3ccccc3)cc2)CC1 (configuration not stated)	-27%
NC(=O)C1CCN(c2oc(-c3cccs3)nc2S(=O)(=O)c2ccc(Cl)cc2)CC1	-3%
Cc1ccc(NC(=S)N(Cc2cccs2)Cc2cc3cc(C)cc(C)c3[nH]c2=O)cc1	4%
COC(=O)[C@H]1C[C@H]1[C@@H](NC(=O)c1cccnc1)c1ccccc1	-1%&-2%
CC(C)NC(=S)Nc1c(N)[nH]c(=O)[nH]c1=O	5%
CC(C)C[C@H](NC(=O)C1CCN(S(=O)(=O)c2ccccc2)CC1)C(=O)NCc1ccccn1	-16%
COc1ccc(N2CCN(C(=S)Nc3cccc(C)c3C)CC2)cc1	7%

Looked up above.
CC(C)C[C@H](NC(=O)C1CCN(S(=O)(=O)c2ccccc2)CC1)C(=O)NCc1ccccn1 in VDR inh is listed with -16%
COC(=O)[C@H]1C[C@H]1[C@@H](NC(=O)c1cccnc1)c1ccccc1 in VDR inh is listed with -1%&-2%
Cc1ccc2nc(N3CCN(C(=O)c4ccco4)CC3)c3nncn3c2c1 in VDR inh is listed with 10%
O=C1c2ccccc2C(=O)N1Cc1nc2ccccc2o1 in VDR inh is listed with -8%

The list continues:
SMILES	VDR inh
COCn1ccnc1C(O)(c1ccc(OC)cc1)c1ccc(OC)cc1	-8%
CC1=C(C#N)C(/C=N/OCc2ccc(F)cc2Cl)CC(=O)N1 (configuration not stated)	?
CC1(C)Cc2nc3nc(SCC(=O)Nc4ccccc4)nc(N)c3cc2CO1	-8%
CS(=O)(=O)c1ccc2nc(N)sc2c1	-8%
Cc1ccc(N2CCN(S(=O)(=O)c3ccc4c(c3)NC(=O)C(C)C(=O)N4)CC2C)cc1 (configuration not stated)	-14%
COc1cccc(NC(=O)Cc2ccc(C)cc2)c1	-2%
Cn1c(=O)c2c(nc(Oc3cccc(O)c3)n2C)n(C)c1=O	-4%
CC1=NN(C(N)=S)C(=O)C1N=Nc1cccc(C)c1 (configuration not stated)	-3%
COc1cccc(NC(=O)CN(C)C(=O)/C=C/c2cn(-c3ccccc3)nc2-c2ccc(OC)c(OC)c2)c1	-1%
CCC(=O)Nc1ccc(NC(=O)CSc2nnc(-c3ccco3)n2C)cc1	1%
CCOc1ccccc1NC(=O)CSc1nc2ccccc2nc1N1CCOCC1	-6%&-16%
O=C(NCCS(=O)(=O)NCc1ccccn1)c1ccccc1	6%
COc1ccc(OC)c(CNC(=O)CN(c2ccc(C)cc2)S(=O)(=O)N(C)C)c1	5%
CC(C)(C)NC(=O)Cn1cc(S(=O)(=O)Cc2ccc(F)cc2)c2ccccc21	10%
Cc1ccc(C2=NN(CC(=O)NCCc3ccc(Cl)cc3)C(=O)CC2)cc1	-27%
Cn1c(=O)c(C(=O)CCl)c(N)n(CC2CC2)c1=O	-1%
O=C(COC(=O)c1ccc2c(c1)OCO2)Nc1ccccc1	3%
O=C(COC(=O)c1cn(-c2ccccc2)nc1-c1ccccc1)c1cccc([N+](=O)[O-])c1	-6%
Cc1ccc(NC(=S)N(CCCN2CCC(C)CC2)Cc2ccco2)cc1C	-13%
Cc1cccc(C(=O)NC(C)C2CC3CCC2C3)c1 (configuration not stated)	5%
O=C1N(c2ccccc2C(F)(F)F)O[C@]1(c1ccccc1)C1CCCCC1	-10%
Cn1nnnc1SCC(=O)N(C1CCCCC1)C1CCCCC1	-6%
O=C(COC(=O)c1n[nH]c(=O)c2ccccc12)c1ccc(Cl)cc1	-19%
Cc1cc(C)c2sc(N3CCN(C(=O)c4ccc(N(C)C)cc4)CC3)nc2c1	7%
O=C(CNC(=S)NC(=O)c1cccc([N+](=O)[O-])c1)c1ccccc1	-16%
Cc1ccc(C(=O)c2cccc(N)c2)cc1C	-12%
O=C(Nc1ccc(C2=NCCN2)cc1)c1ccc(C(=O)Nc2ccc(C3=NCCN3)cc2)c([N+](=O)[O-])c1	-6%
Cc1cc(NC(=O)C(C)SCC(=O)N(C)Cc2c(F)cccc2Cl)no1 (configuration not stated)	-4%
Cc1ccc(-n2c3c(cc(C(=O)O)c2=O)C(=O)CC(C)(C)C3)cc1	5%
O=C(c1cnn(-c2ccc(F)cc2)c1-n1cccc1)N1CCN(c2ccc(Cl)cc2)CC1	9%
CCCn1c(SCC(=O)NC2CCCCC2)nnc1C1CC1	1%
C=CCn1c(C(C)NC(=O)CCC)nc2ccccc21 (configuration not stated)	9%
COc1cccc(CN(c2ccc3c(c2)CCC3)S(=O)(=O)c2ccc(-n3cnnn3)c(OC)c2)c1	0%
CCN(CC(=O)Nc1c(F)cccc1F)C(=O)c1ccc(C(F)(F)F)cc1	-7%
COc1cccc(Nc2ncc3nc(-c4cc(F)cc(F)c4)c(=O)n(CCC#N)c3n2)c1	-7%
O=C(COC(=O)c1cc([N+](=O)[O-])ccc1N1CCOCC1)NC1CCS(=O)(=O)C1 (configuration not stated)	-24%
O=C(O)C1(O)CC(O)C(O)C(O)C1 (configuration not stated)	4%
O=C(CSc1ccc(-c2ccncc2)nn1)N1CCCCC1	-14%
COc1ccco1	9%
CC(C)(C)c1ccc(C(=O)N2CCC(C(=O)NCC3CCCO3)CC2)cc1 (configuration not stated)	12%
Oc1ccccc1C=Nc1ccccc1-c1nc2ccccc2[nH]1	-9%
O=C(OCC(=O)c1c[nH]c2ccccc12)c1cccc(O)c1	-11%
CCN1C(=O)[C@H]2[C@H]3CN=C(SCc4ccc(OC)cc4)N3[C@@](CC)(C(=O)OC)[C@H]2C1=O	7%
COCc1c(C#N)c(NCCc2ccccc2)nc(C)c1[N+](=O)[O-]	-2%
CC1Cc2ccccc2N1C(=O)COC(=O)c1ccc([N+](=O)[O-])o1 (configuration not stated)	-24%
CN(C)CC(NC(=O)c1cccc(S(=O)(=O)Nc2ccc3c(c2)OCO3)c1)c1ccccc1 (configuration not stated)	-3%
C=CCOc1ccc(C2N3CC4(CC)CN2CC(CC)(C3)C4=O)cc1 (configuration not stated)	9%
COc1ccccc1CCC(=O)Oc1ccccc1C#N	2%
COc1ccc(CCN(C)c2ccc(S(=O)(=O)N3CCCC3)cn2)cc1OC	-8%
CC(C)OC(=O)c1ccc(NC(=S)NC(=O)c2cncc(Br)c2)cc1	-9%
CNC(=S)N(CCc1c(C)[nH]c2ccc(OC)cc12)Cc1cccnc1	-19%
Cc1ccc(-c2csc(NC(=O)CSc3nnc4c(n3)[nH]c3ccccc34)n2)cc1	-3%
CCOc1ccc(-c2cn(CCC#N)cn2)cc1	1%
Cc1nn(CC2CC2)c(=O)n1-c1ccc(C(C)C)cc1	-7%
COc1ccccc1C(=O)COC(=O)C1(C)CC1(Cl)Cl (configuration not stated)	6%
O=Cc1c(-c2ccc(Cl)cc2)oc2ccc(O)cc12	23%
CCOC(=O)c1c2n(c3ccc(OC(C)=O)cc13)CCC2	3%
O=C(NCCc1ccc2c(c1)OCO2)C1CCN(S(=O)(=O)c2ccc(Cl)cc2)CC1	2%
COc1ccccc1NC(=O)CCCc1nnc2n(C)c(=O)c3sccc3n12	4%&22%
COCCCC1CCN(C(=O)C2CCC(=O)N(Cc3ccccc3F)C2)CC1 (configuration not stated)	17%

Reprinted from the listing (four entries):
SMILES	VDR inh
CCOC(=O)c1c2n(c3ccc(OC(C)=O)cc13)CCC2	3%
O=C(NCCc1ccc2c(c1)OCO2)C1CCN(S(=O)(=O)c2ccc(Cl)cc2)CC1	2%
COc1ccccc1NC(=O)CCCc1nnc2n(C)c(=O)c3sccc3n12	4%&22%
COCCCC1CCN(C(=O)C2CCC(=O)N(Cc3ccccc3F)C2)CC1 (configuration not stated)	17%

Other compounds follow.
SMILES	VDR inh
CCCN(CCC)Cc1c(C(=O)OCC)nnn1-c1nonc1N	1%
Cc1ccc(C(C)C)c(OCCSc2nc3ccccc3n2CC(=O)O)c1	5%
CC(CCc1ccccc1)NCc1ccncc1 (configuration not stated)	7%
Cn1cc(Cl)c(C(=O)Nc2nc3ccc(Cl)cc3s2)n1	-3%
Cc1nn(CC(=O)Nc2ccc3c(c2)nc(CCN2CCCCC2)n3C)c(=O)c2ccccc12	-4%
CCOc1ccc2c(c1)/C(=N/N1C(=O)c3ccccc3C1=O)C(=O)N2	3%
Cc1ccc(C)c(CSC2=NN3CCCC(=O)N=C3S2)c1	6%
Cc1ccccc1NC(=O)CN1CCN(C(=O)c2ccco2)CC1	-5%
COc1ccc2c(=O)c(N3C(=O)c4ccccc4C3=O)c(C)oc2c1	8%
Cc1ccccc1NS(=O)(=O)c1ccc2oc(=O)ccc2c1	-2%
Cc1cccc(N2CCN(Cc3nnc(-c4ccccc4C)o3)CC2C)c1 (configuration not stated)	0%
Cc1ccc(-n2ncc(C(=O)NCc3cccs3)c2C2CCN(C(=O)OC(C)(C)C)CC2)c(C)c1	0%
CCCCn1cnc2c(oc3ccccc32)c1=O	-21%
Cc1ccc2nc(NCCc3ccccc3)c3nncn3c2c1	0%&4%
CCOC(=O)CC1CCCCN1C(=O)c1ccc2oc(CCc3ccccc3)nc2c1 (configuration not stated)	-8%
Cc1cc(N2CCN(C)CC2)nc2ccc(NC(=S)NCCN3CCc4ccccc4C3)cc12	15%
Cn1c(SCC(=O)NC(C)(C)C)nnc1-c1cnccn1	-19%
COc1c(N2CCN(C(=S)NC3CC4CCC3C4)C(C)C2)c(F)cc2c(=O)c(C(=O)O)cn(C3CC3)c12 (configuration not stated)	-21%
Cc1ccc(NC(=S)N2CCN(S(C)(=O)=O)CC2)cc1Cl	-12%
O=C(N/C=C/c1ccco1)NCc1ccccc1	13%
Cc1ccc(N(CC(=O)NC2CCCC2)C(=O)c2c(C)noc2C)cc1C	2%
Cc1nn(C(C)C)c(C)c1CN1CCC(C(=O)Nc2cccc(-c3cccc(F)c3)c2)CC1	15%
